# AID504770: growth inhibition of E. coli YBA685, primary screen, V. cholerae RctB inhibitors; hit rate 0.27% among 130,000; E. coli YBA685 rctB-dependent plasmid, OD600 growth, 3 h; active compounds read low; AID 504770, 2011; z-score (no concentration beside the values);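 active = z-score under -2 on both plates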;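 note: wells of about 30 µL received 100 nL stock; score is relative to mean and SD of the test wells; the first replicate is given; strong numbers were not always called active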
# CapD inh: Bacillus anthracis CapD inhibitors, primary screen, biochemical, fluorescence intensity | CapD gamma-glutamyltranspeptidase (Bacillus anthracis Ames Ancestor) | AID 492967, 2010 | z-score (concentration not given with the values) | purified CapD enzyme, fluorescence intensity read-out; active compounds read low; some hits fall short of the stated cut | hit rate 0.23% among 140,000;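 active = z-score under -4 in either of two replicates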;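 note: stock transfer was 100 nL into about 40 µL; score is relative to mean and spread of the plate; one replicate is shown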
# The depositor's hits bear a star; . = not tested or not shown; & = joins results of further samples. Not a hit list; overall some 0.41% were active at least once.
SMILES,AID504770,CapD inh
COc1cccc(NC(=O)CN(C)CC(=O)Nc2ccc3c(c2)CCC3)c1,-0.3,.
O=C(O)C1c2cccn2-c2ccccc2CN1Cc1cccnc1 (centres undefined),.,-0.9
C=CCc1cc2c(C)cc(=O)oc2c(C)c1O,-0.9,38
Cc1ccc2c(c1)c1c3n2CCN(CC#N)C3CCC1 (centres undefined),0.8,0.56
CCc1cccc(CC)c1N1C(=O)C(C)=C(C)C1=O,.,0.42
CC(C)(C)c1ccc(C(=O)N2CCc3c(F)c(F)c(F)c(F)c32)cc1,.,-0.26
Cc1cc2cc(CNC(=O)C34CC5CC(CC(C5)C3)C4)ccc2n1C,-0.05,-0.38
O=C(NCc1cccs1)c1ccc2ncsc2c1,-0.75,.
NC(N)=Nc1nc(-c2cc(Cl)sc2Cl)cs1,.,-0.79
O=C(CSc1nnc(-c2cccnc2)n1-c1ccc(Br)cc1)c1cccc([N+](=O)[O-])c1,.,0.59

# Overlap with the part before: seven compounds; new compounds follow.
SMILES,AID504770,CapD inh
Cc1ccc2c(c1)c1c3n2CCN(CC#N)C3CCC1 (centres undefined),0.8,0.56
CCc1cccc(CC)c1N1C(=O)C(C)=C(C)C1=O,.,0.42
CC(C)(C)c1ccc(C(=O)N2CCc3c(F)c(F)c(F)c(F)c32)cc1,.,-0.26
Cc1cc2cc(CNC(=O)C34CC5CC(CC(C5)C3)C4)ccc2n1C,-0.05,-0.38
O=C(NCc1cccs1)c1ccc2ncsc2c1,-0.75,.
NC(N)=Nc1nc(-c2cc(Cl)sc2Cl)cs1,.,-0.79
O=C(CSc1nnc(-c2cccnc2)n1-c1ccc(Br)cc1)c1cccc([N+](=O)[O-])c1,.,0.59
CCCCn1nnnc1SCC(=O)c1cc(OC)ccc1OC,-0.05,.
Cc1ccc2cc(C3CC(c4cccs4)=NN3C(=O)CCC(=O)O)c(Cl)nc2c1 (centres undefined),.,58
CC1(C(=O)NC2CCCCC2)Cc2ccccc2C(=O)N1Cc1cccnc1 (centres undefined),1.1,0.03
COC(=O)c1sc2ccccc2c1NC(=O)c1ccco1,-0.6,14
Oc1ccc(Br)cc1C=Nc1ccc2[nH]ncc2c1,-1.1,.
CCOc1nc(NC)nc(N(C#N)CN2C(=O)c3ccccc3C2=O)n1,-0.3,.
O=C(Nc1ccccc1C(=O)OCC(=O)N1CCOCC1)c1ccco1,-0.9,.
CCCc1n[nH]c(=S)n1N,1.6,.
CCOc1ccc(CN(Cc2ccco2)C(c2ccc(C(F)(F)F)cc2)c2nnnn2CCOC)cc1 (centres undefined),0.2,.
COCCN1C(=O)C(C)SC1c1ccc(Br)cc1 (centres undefined),0.25,.
C=C1SC(Nc2ccccc2OC)=NC12CCCCC2,2.1,0.47
NNC(=O)CSc1nnc2c(n1)[nH]c1ccccc12,-1.6,.
CC(C)c1nc2ccccc2n1CCc1ccccc1,-0.4,.
CCOC(=O)c1cc(-c2ccc(F)cc2)n(CC(=O)N2CCn3c2nc2ccccc23)c1C,0.9,0.33
COC(=O)C1=NNC(C(=O)OC)=NN1,-0.1,0.3
CNc1ccccc1C(C)(C)c1cc(-c2ccccc2C)no1,1.2,.
O=C(/C=C/c1ccco1)Nc1ccccc1C(=O)OCC(=O)c1cccs1,0.05,.
ON(Cc1c(F)cccc1Cl)Cc1c(F)cccc1Cl,.,-0.42
O=C(Nc1cccc(C(F)(F)F)c1)/C(=C\c1cccs1)c1ccsc1,-0.3,-1.8
CC(=O)/C(C)=N/NC(=O)CC#N,.,-0.075
COCC(=O)N(Cc1ccccc1)c1ccccn1,1.1,0.31
CC1(C)C2CCC1(C)C(C#N)(Nc1ccccc1)C2 (centres undefined),.,0
COC(=O)CC1SC(=O)NC1=S (centres undefined),-2.7,.
CCC1=C(C)c2cc3nc(C(=O)OCc4ccccc4)c(C)c-3c(C)n2C1C (centres undefined),.,96
CCc1cc2c(cc(C(=O)NCc3ccccc3)n2C)s1,0.85,0.52
COC(=O)C1=C(C(=O)OC)SC2(S1)C(C(=O)OC)=C(C(=O)OC)SC1=C2c2cccc(C)c2N(C(=O)c2cccc(OC)c2)C1(C)C,.,-0.15
Cc1cc(COc2ccccc2OCCN2CCN(C)CC2)no1,-0.5,0.29
O=C(c1ccc2cc[nH]c2c1)N1CCN(Cc2ccccc2)CC1,.,0.55
Cc1cc(C)cc(C(=O)Nc2ccc(-c3ccc(N4CCOCC4)nn3)cc2)c1,0.35,.
CC(C)(C)OC(=O)N1CCC(c2cc(=O)n3[nH]cc(C(=O)Nc4ccc(F)c(Cl)c4)c3n2)CC1,-0.65,-0.28
CN(Cc1ccccc1)C(=O)c1cccc(N2C(=O)C3C4C=CC(C4)C3C2=O)c1 (centres undefined),0.45,-0.11
Cc1ccc(N=Cc2cn(-c3ccccc3)nc2-c2ccccc2)cc1,2,-0.54
O=C(OCC(=O)N1N=C2/C(=C/c3ccco3)CCCC2C1c1ccco1)c1cccc(S(=O)(=O)N2CCOCC2)c1 (centres undefined),0.35,.
Cc1onc(-c2ccccc2)c1C(=O)N(Cc1ccccc1)Cc1ccccc1,0.65,4.2
Cc1sc2ncnc(Sc3nnc4ccccn34)c2c1C,0.4,-0.52
C=CCN1C(=O)C2(/C(=C(/O)c3ccc(C)c(F)c3)C(=O)C(=O)N2CCCN2CCOCC2)c2ccccc21 (centres undefined),1.6,-0.18
CCC(=O)c1ccc2c(c1)N(CC(C)N(C)C)c1ccccc1S2 (centres undefined),.,-0.71
CCOC(=O)c1ccc(N=Cc2ccc(Cl)c(Cl)c2)cc1,-0.65,0.26
O=C(O)c1cc(=O)[nH]c2ccc(S(=O)(=O)N3CCOCC3)cc12,0.1,.
O=C(CN1C(=O)/C(=C/c2ccccc2F)Oc2ccccc21)NCCCN1CCCC1,-0.55,24
COC(=O)c1cccc(NC(=O)C(C)(C)C)c1,0.15,0.4
COc1csc2nc(C)cc(C)c12,-0.1,1.4
O=C(OCc1nc2ccccc2s1)c1cccc(S(=O)(=O)N2CCCC2)c1,-0.4,.
CS(=O)c1cnc(-c2ccncc2)nc1-c1ccc(C(F)(F)F)cc1 (centres undefined),.,-0.2
C=CCn1c(CC(C)(C)C)nc2ccccc21,-0.3,0.56
CC(=Nc1ccccc1C(F)(F)F)c1ccncc1,0.1,-0.39
CN(C)c1ccc(/C=N/NC(=O)c2ccn(C)n2)cc1,0.2,7.4
O=C(N[C@@H](Cc1ccccc1)C(=O)N1CCN(c2ncccn2)CC1)c1ccc(Cl)cc1,-0.5,.
CN=C(NC)SC1CC(=O)N(c2ccccc2F)C1=O (centres undefined),0,0.67
Cc1ccccc1C1CC(=O)NC2=C1C(=O)CCC2 (centres undefined),-0.55,1.9

# Next compounds:
SMILES,AID504770,CapD inh
C=CCn1c(SCC(=O)c2ccc(OC)cc2)nnc1-c1cccs1,-0.1,-0.31
c1nc2ccc(Oc3ccc4nc[nH]c4c3)cc2[nH]1,-1,-1.4
CCCNC(=O)C1CCN(c2nn3cc(-c4ccc(F)cc4)nc3s2)CC1,0.45,0.1
Cc1cccc(-n2cnc3cc(C(=O)NCCN4CCOCC4)ccc32)c1,0.85,0.54
CCn1c(=O)cc(Nc2ccc(C)c(C)c2)[nH]c1=O,1.2,.
O=C(CSc1nnc(Cc2cc(=O)[nH]c(=O)[nH]2)n1-c1ccc(Cl)cc1)N1CCCCC1,-0.55,-0.025
CC(C)(C)C(=O)COC(=O)C1CC(=O)N(c2ccccc2)C1 (centres undefined),0.65,0.49
COc1cc(OC)cc(C(=O)N(C)CCOc2ccc(Cl)cc2)c1,-0.95,.
O=C(c1ccc(F)cc1)C1CCN(C(=O)OCCc2ccccc2Cl)CC1,.,-1.6
Cc1cc(Cl)nc(Cl)c1C(N)=O,-0.45,0.37

# Complete entries as entered above. Screens in order: AID504770	CapD inh
# Profile of O=C(N[C@@H](Cc1ccccc1)C(=O)N1CCN(c2ncccn2)CC1)c1ccc(Cl)cc1 = -0.5	.
# Profile of COC(=O)C1=C(C(=O)OC)SC2(S1)C(C(=O)OC)=C(C(=O)OC)SC1=C2c2cccc(C)c2N(C(=O)c2cccc(OC)c2)C1(C)C = .	-0.15

# The results go on:
SMILES,AID504770,CapD inh
CCn1c(-c2ccccc2)n[nH]c1=S,1.1&-0.35,4.5
CN1/C(=C\C(=O)Cn2nnc(-c3ccccc3)n2)C(C)(C)c2ccccc21,1.4,.
O=S1(=O)N=C(Nc2ccccc2)c2ccccc21,-0.05,0.15
Cc1cc(C)cc(C(=O)Nc2cc(C)c3c(=O)oc4ccccc4c3n2)c1,0.75,.
CSc1cc(C(C)(C)C)nn1S(=O)(=O)c1ccc(F)cc1F,1,0.54
O=C(OCc1ccccc1)C1CCCN1S(=O)(=O)c1ccc2c(c1)CN(C(=O)C(F)(F)F)CC2 (centres undefined),.,-0.12
Cc1ccc(-c2nnc(-c3ccccc3)o2)cc1,-0.45,11
CCN(CC)C(=O)COc1coc(CN2CCN(c3ccccc3)CC2)cc1=O,-0.4,.
O=C(Cc1ccc(-c2ccccc2)cc1)N1CCN(CC(=O)N2CCCC2)CC1,0.75,.
COc1ccc(NC(=O)CCN2C(=O)/C(=C\c3cccs3)SC2=S)cc1,.,0.24
Cc1cc(C(=O)CSc2nc(N)nc(N)n2)c(C)n1C1CCS(=O)(=O)C1 (centres undefined),-2.2,.
CCC(=O)c1ccc(OCC(=O)N2c3ccccc3CC2C)cc1 (centres undefined),-0.95,-0.36
C=CCOC(=O)C1=C(C)NC2=C(C(=O)CC(c3ccc(OC)cc3)C2)C1c1ccc(OCC)c(OC)c1 (centres undefined),.,11
Cn1c(CNC(c2ccccc2)c2ccccc2)nc2ccccc21,-0.25,0.22
COc1ccc(C(C)(C)C)cc1NC(=O)COC(=O)C(C)C,-0.3,.
Cc1ccc(SCCC(=O)O)cc1,-0.35,-0.36
O=C(C(c1ccccc1)c1ccccc1)N1CCOCC1,0.35,0.97
CN1CCC(N(C2CC2)S(=O)(=O)c2ccc(NC(=O)C(C)(C)C)cc2)CC1,.,-0.24
O=C(O)c1ccccc1C(=O)NCCCn1ccnc1,0.35,0.45
Cc1nc(-c2c(C(=O)NNC(=O)OCCC3OCC(C)(C)CO3)noc2C)cs1,.,-0.39
Cn1cccc1Cc1nnc(SCC(=O)NCc2ccco2)n1CCc1ccccc1,0.25,0.09
CC(=O)Oc1ccccc1N(/C=C1/Sc2ccccc2C1=O)C(C)=O,.,-1.1
Cc1cc(C)n(CCOc2ncc(C(F)(F)F)cc2Cl)n1,-0.6,-0.42
COC(=O)c1ccccc1N1CC(C)(C)C1=O,0.15,-0.14
COC(=O)CCCN=C1SCCN1Cc1ccccc1,-0.45,.
O=C1CC(c2ccco2)CC(O)=C1C=NCC1CCNCC1 (centres undefined),-0.65,-0.21
CC1(C)CC(=O)C2=C(C1)N(c1ncn[nH]1)C(N)=C(C#N)C2c1ccsc1 (centres undefined),-0.8,-0.44
Cc1ccc(NC(=O)Cn2cnc3sc(C(=O)N4CCN(c5cccc(Cl)c5)CC4)c(C)c3c2=O)cc1Cl,.,0.13
CC1=C(O)C(=O)OC1c1c(F)cccc1Cl (centres undefined),0.65,-0.025
CC(=O)Nc1ccc(S(=O)(=O)NCc2csc3ccccc23)cc1,-0.25,-0.38

# An excerpt of these results, with values under each structure.
# Second line of a record: AID504770	CapD inh
> CC1(C)CC(=O)C2=C(C1)N(c1ncn[nH]1)C(N)=C(C#N)C2c1ccsc1 (centres undefined)
 : -0.8	-0.44
> Cc1cc(C)n(CCOc2ncc(C(F)(F)F)cc2Cl)n1
 : -0.6	-0.42
> Cc1ccc(NC(=O)Cn2cnc3sc(C(=O)N4CCN(c5cccc(Cl)c5)CC4)c(C)c3c2=O)cc1Cl
 : .	0.13
> CC(=O)Oc1ccccc1N(/C=C1/Sc2ccccc2C1=O)C(C)=O
 : .	-1.1

# Later entries:
SMILES,AID504770,CapD inh
CC1(C)CC(=O)C(C=NC(CO)(CO)CO)=C(O)C1,0.9,-0.41
O=C1c2ccccc2S(=O)(=O)N1Cc1cccc(Cl)c1,0.05,-0.49
CC(=O)N1c2ccc(S(=O)(=O)N(C)c3ccc(C)cc3)cc2CC1C (centres undefined),1.2,-1.3
O=C(Nc1cccnc1Cl)c1ccc(Oc2ccccc2)cc1,-0.45,0.16
CC1=CS/C(=C(/C#N)C(=O)N2CCCCC2)N1c1ccccc1,-0.4,-0.28
Cc1ccc(CSc2nc3c(sc(=S)n3-c3ccccc3C)c3nc4ccccc4n23)c(C)c1,.,-0.24
C=CCNC(=O)CN1CCN(S(=O)(=O)c2ccccc2C(F)(F)F)CC1,-0.15,.
CC1=C/C(=N/NC(=O)Cc2csc(N3CCOCC3)n2)CC(C)(C)C1,-0.8,.
c1csc(-c2csc3nc(CN4CCOCC4)nc(Sc4nnc(C5CC5)o4)c23)c1,-0.25,.
C=CCSc1n[nH]c(=O)n1-c1cccc(Cl)c1,0.4,9
O=c1[nH]c(O)c(C=Nc2cc(C(F)(F)F)ccc2N2CCCCC2)c(=O)[nH]1,0.6,.
CC(C)=NOC(=O)c1ccc(CSc2ccc(C(F)(F)F)cn2)o1,-0.55,0.46
Oc1ccc(Oc2ccc(C(F)(F)F)cn2)cc1,-0.65,0.23
CCOC(=O)CSc1nc(=O)cc(N)n1CCc1ccccc1,3.1,-2
CC(C)(C)NC(=O)CSc1nc2ccc(N3C(=O)c4ccccc4C3=O)cc2s1,-0.35,0.1
C#CCOC(=O)Nc1cnc(N2CCOCC2)c(C(F)(F)F)c1,-0.1,10
Cn1ccsc1=NC(=O)c1ccc(S(C)(=O)=O)cc1,0.05,.
COc1ccc(C(=O)Cn2c(=O)oc3ccc(C)cc32)cc1,1,1
COc1ccc(C2CC(=O)NC(SCC(=O)Nc3ccccc3)=C2C#N)cc1OC (centres undefined),.,-0.38
O=c1nc2n(-c3ccc(F)cc3)c3ccccc3cc-2c(=O)[nH]1,.,-0.32
NC(=O)CN1C(=O)COc2ccc(Cl)cc21,-1.2,.
COc1ccccc1Oc1ccc(S(=O)(=O)N2CCCC2)cc1,-0.1,-0.75
Cc1nn(C(=O)c2c(-c3c(Cl)cccc3Cl)noc2C)c(C)c1Br,.,0.4
